# Source: PubChem (National Center for Advancing Translational Sciences (NCATS))
# Menin-MLL FL inh: displaces fluorescein MLL peptide from human menin; Fluorescence polarization, fluorescein-MLL peptide displacement from menin; FP activity change, % at 61.4 µM; 290,000 tested, under 10 active; AID 1766; inconclusive = falling polarisation curve, or a change in total fluorescence; inactive = total fluorescence flat and polarisation flat or rising; no compound was filed as active; the % refers to the polarisation; negative = inhibition;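 also: % of control where 0% means no effect; inhibitors lower the polarisation; unlabelled MLL peptide was the positive control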
# TRPML1 blocker: human mucolipin-1 channel inhibition. Q9GZU1. TRPML1-inducible cells, Ca2+ dye fluorescence, FDSS; hits give low values; inhibition of EC80 agonist-evoked calcium signal. activity change, negative = inhibition, % (test concentration not listed). actives 0.02% (n = 390,000). AID 624415; in the data active means activity change below about -50%; inconclusive means about -30% to -50%; inactive means above about -30%;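 also: stimulus is agonist 54-4 at its EC80 concentration; % is scaled to controls: 0 for no effect and ±100 for the full control effect; compound concentration not given in the record; the text of the record puts the active cut at -80%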
# Target sequence (Q9GZU1 whole entry, looked up): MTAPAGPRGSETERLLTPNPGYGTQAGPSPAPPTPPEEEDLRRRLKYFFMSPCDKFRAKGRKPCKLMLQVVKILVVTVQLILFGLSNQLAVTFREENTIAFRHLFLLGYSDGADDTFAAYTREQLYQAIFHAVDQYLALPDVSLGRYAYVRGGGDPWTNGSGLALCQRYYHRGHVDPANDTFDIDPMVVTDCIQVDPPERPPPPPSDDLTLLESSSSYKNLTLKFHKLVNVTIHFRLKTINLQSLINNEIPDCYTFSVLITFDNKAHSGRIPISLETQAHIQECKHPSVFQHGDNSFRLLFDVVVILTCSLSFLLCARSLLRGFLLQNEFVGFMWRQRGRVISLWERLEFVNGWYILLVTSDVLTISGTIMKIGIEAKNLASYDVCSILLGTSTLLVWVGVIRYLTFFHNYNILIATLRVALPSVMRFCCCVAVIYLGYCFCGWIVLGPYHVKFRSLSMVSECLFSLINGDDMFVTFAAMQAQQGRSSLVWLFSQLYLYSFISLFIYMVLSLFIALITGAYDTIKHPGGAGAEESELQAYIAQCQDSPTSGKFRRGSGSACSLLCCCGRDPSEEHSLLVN
#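 TRPML1-DL cells, Tet-induced overnight (~16 h, 37 °C) at 1,500 cells/well, were loaded with Ca8 no-wash dye plus quencher for 45-90 min at room temperature. Compounds were pinned during FDSS kinetic reading; agonist 54-4 at EC80 (4 uM final) then added.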
# TRPV1 PAM: human TRPV1 potentiation; TRPV1-expressing cells, Fluo-8 calcium influx, capsaicin EC20 potentiation; host cell line not named in the record; control for the full effect not named in the record; potentiation, % at 8.33 µM; actives 0.02% (n = 320,000); active means potentiation above 80%; inconclusive means 30% to 80%; inactive means below 30%; also: 0% is about no effect
#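 TRPV1-expressing cells were cultured overnight at 35.5C and loaded with Fluo-8 calcium dye for 40 to 90 min at room temperature. After a 10 s baseline, compound was added and calcium influx was read kinetically for 3 min (ex 480/em 520 nm).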
# gsp agonist: activates gsp, the McCune-Albright syndrome mutation; gsp mutant cells, cAMP HTRF, 30 min; control for the full effect not named in the record; Potency, µM (titrated, usually from 76.9 µM), for the others: at the top dose activation (cAMP increase), most hits filed as activators; actives 0.13% (n = 340,000); active = well fitted activation curve with a large enough effect; inconclusive = small, poorly fitted or top-dose-only effect, or another doubt; inactive = no such curve, though single readings can be large or run the other way; cell line not stated here;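 also: phosphodiesterase inhibitor Ro 20-1724 added with compounds to block cAMP breakdown; potency is read from the fitted curve at half-maximal effect; nearly all actives have a fitted effect of over 60% in size; about a fifth of the inactives were tested at one dose only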
#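 Cells in DMEM/10% FBS with G418 were pretreated with compounds in DMSO plus […] (300 uM stock) for 30 min at 37C. cAMP was measured by HTRF (cAMP-d2 plus anti-cAMP antibody-K) after 30 min at room temperature.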
# ClpP mod: qHTS Assay for Activators of ClpP; AID 651965, 2013; actives 1.9% (n = 340,000); Potency, µM (doses to about 57.5 µM), for inactives: top-dose activity change, negative = active; purified B. subtilis ClpP, FRET peptide cleavage, 20 min; active = well fitted falling curve with a large enough effect; inconclusive = small, poorly fitted or top-dose-only effect; inactive = no such curve, though single readings can be large or run the other way; also: potency is read from the fitted curve at half-maximal effect; the source files actives as falling curves though it sought activators and does not explain the sign; nearly all actives have a fitted effect of over 65% in size; many hits overshoot -100%
# Target sequence (P80244 whole entry, looked up): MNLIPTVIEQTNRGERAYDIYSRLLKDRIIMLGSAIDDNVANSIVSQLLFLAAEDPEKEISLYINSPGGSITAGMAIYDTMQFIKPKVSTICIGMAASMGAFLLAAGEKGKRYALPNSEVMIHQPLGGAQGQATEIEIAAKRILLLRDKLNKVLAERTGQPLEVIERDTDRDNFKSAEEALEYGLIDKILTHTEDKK
#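 Buffer: 100 mM Tris/HCl pH8, 100 mM KCl, 0.05% low protease BSA, 2.5% glycerol, 0.01% Tween-20. ClpP 10 microg/mL final; 20 min RT; delta FRET normalized to ADEP and DMSO controls.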
# Sfp PPTase inh: blocks B. subtilis Sfp PPTase activity; Q9F4F7; Biochemical Sfp PPTase activity, qHTS; Potency, µM, for inactives: max response, negative = inhibition, most hits filed as inhibitors; actives 3.5% (n = 310,000); active = well fitted inhibition curve with a large enough effect; inconclusive = small, poorly fitted or top-dose-only effect, or another doubt; inactive = no such curve, though single readings can be large or run the other way;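 also: the enzyme is Sfp with the accession as filed and its product quenches rhodamine fluorescence; potency is read from the fitted curve at half-maximal effect; 0% = enzyme reaction without inhibitor and -100% = no enzyme wells; top concentration of the series not given in the record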
#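 Buffer: 50 mM Hepes-Na pH 7.6, 10 mM MgCl2, 0.01% Nonidet P-40, 0.01% BSA. Enzyme 15 nM, pre-exposed to compound 15 min; substrates then added and fluorescence change tracked over 30 min.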
# gsp antagonist: antagonizes gsp, the McCune-Albright syndrome mutation | gsp-mutant cells, cAMP HTRF, 30 min; control for the full effect not named in the record | Potency, µM (series often up to 76.9 µM), inactives show at the highest dose activity change, negative = inhibition, hits mostly inhibitors | actives 0.4% (n = 340,000) | AID 624288; active = falling curve of any shape with a large fitted effect; inconclusive = falling curve, mostly with a smaller effect; inactive = flat or rising curve; cell line not stated here;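 also: intracellular cAMP measured with PDE inhibitor Ro 20-1724 present during compound exposure; potency is read from the fitted curve at half-maximal effect; % is scaled to controls: 0 for no effect and ±100 for the full control effect; nearly all actives have a fitted effect of over 65% in size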
#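 Cells in G418 medium, seeded 16-24 h, 37C; buffer exchange to DPBS + 1 mM CaCl2, 0.5 mM MgCl2, 0.05% BSA; cpds in DMSO + […] (300 uM stock), 30 min 37C; HTRF cAMP detection.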
# Starred values were filed as active, the others as inactive; ? = inconclusive; . = not tested or not shown; & = joins results of further samples; [ ] = another dose, or the depositor's remark.
# Values run as follows: Menin-MLL FL inh	TRPML1 blocker	TRPV1 PAM	gsp agonist	ClpP mod	Sfp PPTase inh	gsp antagonist
> CN1CCN(CCC2Oc3cc([N+](=O)[O-])ccc3NC2=O)CC1 (configuration not stated)
    -10	-6	3	30%[15.4 µM]	0.6%	17%	-28%
> Cn1ncc(Cl)c1C(=O)Nc1ccc2c(c1)CCC2
    -2.5	1	-16	19%	-0.5%	-1%	-1%
> CCOc1ccccc1NC(=O)CN1C(=O)C(=O)N(Cc2ccco2)C1=O
    -0.3	-5	17	-2%[15.4 µM]	1.1%	11%	7%
> Cc1cc(NC(=O)CSCc2nc(-c3cccc(F)c3)oc2C)no1
    3.4	6	-5	-3%	-30%	4%	-4%
> CCOC(=O)c1ccc(Nc2c(CC)c(C)nc3ncnn23)cc1
    1.5	6	0	1%	-2.5%	4%	-9%
> O=C(NC(=S)Nc1cc(Cl)ccc1N1CCOCC1)c1ccc(-c2cccc(Cl)c2)o1
    -2.2	-19	-11	18%	-2.9%	-3%	-4%
> CCOC(=O)C1(Cc2cccc(F)c2)CCN(C(=O)Cc2cccnc2)CC1
    -1.3	-10	-9	0%[15.4 µM]	.	9%	1%
> COC(=O)c1nc(-n2nc(C)cc2C)ccc1Cl
    5.0	-4	-3	-4%	-3.9%	-3%	10%
> CCN(CC)C(=O)CCC(=O)Nc1ccc(C(=O)OC)cc1
    -0.9	-11	?	1%	-2.9%	-1%	6%
> CC(C)C1C(=O)N(Cc2cn(Cc3ccco3)nn2)CCS(=O)(=O)N1Cc1ccc(-c2ccc(Cl)c(Cl)c2)cc1 (configuration not stated)
    .	-15	.	-47%[inhibitor]	-3.6%	.	.
> Cc1n[nH]c(=S)n(NC(=O)/C=C/C(=O)Nn2c(=S)[nH]nc(C)c2=O)c1=O
    1.8	1	-1	-22%[15.4 µM]	.	?	.
> Cc1ccc(S(=O)(=O)CCC(=O)OCC(=O)NC(N)=O)cc1
    -1.0	-24	-20	-16%	-0.7%	5%	4%
> CC(C)(C)OC(=O)N1CCC(CNC(=O)c2ccc(F)cc2)CC1
    -1.5	33	-14	15%[15.4 µM]	.	18%	9%
> COc1ccc2[nH]c3c(c2c1)CCN1C(=O)C(CC(=O)NCCN2CCOCC2)C[C@H](C(=O)N2CCOCC2)[C@@]31C (some centres not stated)
    .	-18	.	.	1.5%	.	12%
> C1=CN2CCC1C(c1ccccc1)C2 (configuration not stated)
    -1.6	21	-3	-51%[inhibitor]	1.1%	23%	15%
> CCOc1ccc2oc(C(=O)NCC(c3ccco3)N(C)C)c(C)c2c1 (configuration not stated)
    .	18	-2	24%	?	.	5%
> Nc1nonc1-n1nnc(C(=O)N/N=C/c2ccc(OCc3ccccc3)cc2)c1CN1CCCCC1
    -2.7	3	-3	-16%	-6.2%	1%	?
> COC1=CC(=O)OC(c2ccc(OC)cc2)C1 (configuration not stated)
    .	-8	.	-32%	.	.	13%
> COc1ccc(CNC(=O)[C@H](C)NC(=O)[C@@H]2Cc3ccccc3CN2)cc1
    0.0	-5	3	1%	-1.8%	-2%	2%
> Cc1cc2nc(-c3ccc(NC(=O)C(C)C)cc3)oc2cc1C
    2.1	1	-8	-1%	31%	15%	-2%
> O=C(O)c1nn(-c2ccccc2C(F)(F)F)cc1O
    0.3	-14	0	2%	-2.2%	0%	11%
> CCOc1c2ccc(C(=O)NCC34CC5CC(CC(C5)C3)C4)cc2nn1CC
    2.7	3	29	.	3.7%	-3%	-2%
> CSc1ccc(S(=O)(=O)NCc2ccc(C)cc2)cc1
    1.3	86	1	-19%	0.7%	-1%	8%
> COc1ccc(OCCCN(C)Cc2ccccc2)cc1
    3.1	-13	-6	9%	1.4%	-14%	-15%
> Cc1nn2c(N)c(-c3ccccc3)cnc2c1-c1ccc(Cl)cc1
    -0.2	-6	-13	-2%[15.4 µM]	0.5%	9%	-13%
> COc1cccc(NC(=O)COC(=O)C2CC(=O)N(c3ccc(C)cc3)C2)c1 (configuration not stated)
    .	-19	-39	-23%	-1.5%	.	-2%
> COc1c(OC)c2[nH]c(=O)cc3c4ccccc4n(c1=O)c23
    .	14	11	2%	4.5%	.	-13%
> c1ccc(C2[C@H]3CN(CC4CCCCC4)[C@H](c4ccccc4)C34CC2(c2ccccc2)C4)cc1 (some centres not stated)
    29&9.5	5	-2	.	0.1%	-5%&-4%	3%
> C=CCn1c(SCC(N)=O)nc2scc(-c3ccc(C)o3)c2c1=O
    -1.7	-7	12	?	-7.0%	22µM*	-2%
> Clc1ccc(-c2c[n+](Cc3ccc(Cl)cc3Cl)c3n2CCCCC3)cc1
    -3.5	21	-8	14%	2.0%	?	3%
> C/C(=N/NC(=O)CSc1nc2ccccc2n1C)c1ccncc1
    -5.1	-5	-10	-54%[inhibitor]	.	11%	-7%
> CCOC(=O)C1CCCN(Cc2nc(N)nc(Nc3ccc(Cl)cc3)n2)C1 (configuration not stated)
    4.1	18	-7	21%	-6.7%	10%	-1%
> COc1cccc(C(=O)/C=C/Nc2ccc(S(=O)(=O)Nc3cccc(C(C)=O)c3)cc2)c1
    13	60	5	2%	-14%	12%	?
> C=C(C)c1cccc(C(C)(C)NC(=O)N2CCN(c3ccccc3)CC2)c1
    2.8	-3	-12	-2%	0.2%	25%	2%
> COc1ccc(CN(CCC#N)CCC2(c3ccccc3)CC(C)N(C)CC2C)cc1OC (configuration not stated)
    0.8	3	3	0%[15.4 µM]	.	7%	6%
> CN1CCN(c2nc(-c3ccccc3)ncc2S(C)(=O)=O)CC1
    -3.0	-16	-3	-3%[15.4 µM]	-1.3%	5%	3%
> CCOC(=O)c1cc2c(s1)-c1c(C)cccc1OC2
    -0.2	-8	-2	?	4.0%	?	-12%
> CCc1ccccc1N(CC(=O)NCC1CCCO1)C(=O)CCC(=O)Nc1nccs1 (configuration not stated)
    3.3	-11	4	0%[15.4 µM]	-0.6%	11%	-13%
> COC(=O)c1cc(NC(=O)/C=C/c2ccc3c(c2)OCO3)cc(C(=O)OC)c1
    5.1	-2	2	?	-2.5%	8%	-6%
> O=C1c2cccc3cccc(c23)C(=O)N1OS(=O)(=O)c1ccccc1
    0.9	14	-2	28%	28µM*	-9%	7%
> C/C(=N\NC(=O)C(=O)Nc1c(C)n(C)n(-c2ccccc2)c1=O)c1ccc(Cl)s1
    -0.1	1	1	-29%[15.4 µM]	.	21%	-11%
> O=C1c2ccccc2C(=O)c2c1ccc(O)c2O
    .	0	.	.	2.5%	-1%&13%	?
> CCOc1ccccc1N(CC(=O)N1CCCC1)S(C)(=O)=O
    0.1	14	25	-6%[15.4 µM]	2.3%	3%	11%
> C/C(=N\NC(=O)COc1cccc(C)c1)c1ccc2ccccc2c1O
    .	-18	?	?	0.5%	7%	-6%
> COC(=O)c1ccc(CCc2cc(O)ccc2O)cc1
    .	1	.	20%	-8.0%	.	6%
> COc1ccc(S(=O)(=O)N2CCOCC2)cc1NC(=O)CCCOc1ccc(Cl)cc1C
    .	2	22	-55%[inhibitor]	1.8%	.	-27%
> Cc1cc(C)cc(NC(=O)C2C3C=CC(O3)C2C(=O)O)c1 (configuration not stated)
    1.0	2	5	10%	.	9%	8%
> COc1ccc(CCN(C)C/C=C/c2ccccc2)cc1OC
    0.3	-8	-4	-12%	-0.6%	-13%	10%
> Cc1cc(Oc2ccc(-c3ccccc3)cc2)n2ncnc2n1
    3.1	0	3	4%	1.1%	3%	-14%
> Cc1cccc(C(=O)OCC(=O)NN2C(=O)NC3(CCC(C)CC3)C2=O)c1O (configuration not stated)
    .	-6	13	-56%[inhibitor]	-19%	.	13%
> COc1ccc(CCN2C(=O)C(Oc3ccccc3C)C2c2ccc3c(c2)OCO3)cc1OC (configuration not stated)
    2.0	-5	-5	0%	-1.6%	5%	-7%
> O=C(CNC(=O)c1ccco1)NCC(=O)OCc1ccccc1Br
    -2.1	-12	1	-21%	-3.1%	2%	-13%
> COc1ccc2c(C)nc(Nc3nc(-c4ccccc4)cc(=O)[nH]3)nc2c1
    0.9	-10	10	3%[15.4 µM]	.	11%	1%
> CCc1ccc(/C=C2/Sc3ccccc3N(CC(=O)NCC3CCCO3)C2=O)cc1 (configuration not stated)
    -2.1	12	-12	0%	-3.9%	-5%	?
> COc1ccc(Nc2nc(-c3sc(C)nc3C)cs2)c(OC)c1
    -1.2	36	22	-5%	-2.7%	?	-6%
> CCOc1cc2c(cc1OCC)C(c1ccc(O)c(OC)c1)NCC2 (configuration not stated)
    .	8	.	12%	-3.3%	.	0%
> COc1ccc(N2CCC(CNC(=O)Nc3ccccc3)C2)cc1 (configuration not stated)
    6.7	-9	-19	18%	-5.8%	-10%	-25%
> Cc1c(Cl)ccc2c(C(O)CBr)cc(-c3ccccc3)nc12 (configuration not stated)
    .	37	.	5%	.	.	-12%
> COc1ccc(-c2noc(-c3cccs3)n2)cc1OC
    1.5	-5	-10	7%[15.4 µM]	.	13%	-14%
> CC(=O)c1cccc(NC(=O)Nc2ccc3c(c2)N(C)C(=O)CS3)c1
    7.9	-2	-28	-6%	-1.2%	-9%	?

# More records follow:
# Values run as follows: Menin-MLL FL inh	TRPML1 blocker	TRPV1 PAM	gsp agonist	ClpP mod	Sfp PPTase inh	gsp antagonist
> Cc1ccc(SCc2cc(=O)n3[nH]cnc3n2)cc1
    1.1	15	26	?	0.5%	-3%	-10%
> CCOc1ccc(NS(=O)(=O)c2ccc3[nH]c(=O)cc(C(=O)O)c3c2)cc1
    -8.7	1	14	25%	.	19%	5%
> CN1CCN(c2cc(=O)n(C3CCCCC3)c(=O)[nH]2)CC1
    -0.4	14	3	-1%	-2.8%	18%	-2%
> COc1ccc(N(C)C(=O)C2CCN(S(=O)(=O)c3cccc4nsnc34)CC2)cc1
    .	16	-12	-20%	.	2%	-5%
> Cn1c(-c2ccccc2)c(C(=O)CC#N)c2ccccc21
    4.2	20	27	-24%	.	13%	-4%
> COC(=O)c1cc(S(=O)(=O)NCC2CCN(Cc3ccc(F)cc3)CC2)c[nH]1
    0.0	29&3	-17	16%	-2.5%&-2.8%	2%	6%
